# RE007 growth inh: less growth of the S. pombe RE007 Vpr strain; 360,000 tested, 0.21% active; AID 651644; Potency, µM (series often up to 92.2 µM), for inactives: at the top dose activity change, negative = less growth; S. pombe RE007 Vpr strain, BacTiter-Glo ATP luminescence, 24 h; control for the full effect not named in the record; active = well fitted falling curve with a large enough effect; inconclusive = small, poorly fitted or top-dose-only effect; inactive = no such curve, though single readings can be large or run the other way;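 also: % is scaled to controls: 0 for no effect and ±100 for the full control effect; nearly all actives have a fitted effect of over 50% in size; the assay follows cell death caused by Vpr and the record does not say whether a fall means rescue or toxicity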
#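 Fission yeast strain RE007, carrying one chromosomally integrated HIV-1 vpr copy, was seeded at OD 0.01 in PMG+AL medium with 23 nL pinned compound. After 24 h at 30 °C and 99% humidity, viability was read by BacTiter-Glo luminescence.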
# SARS PLP yeast: inhibitors of SARS-CoV papain-like protease in yeast; S. cerevisiae expressing SARS-CoV PLpro, growth rescue; control for the full effect not named in the record; Potency, µM (highest dose often 32.9 µM), inactives show top-dose activity, positive = growth rescue; 330,000 tested, 0.19% active; AID 485353; active means well fitted rising curve with a large enough effect; inconclusive means small, poorly fitted or top-dose-only effect; inactive means no such curve, though single readings can be large or run the other way; also: 0% is about no effect; nearly all actives have a fitted effect of over 55% in size; growth read by luminescence after 48 h
# StopGo reporter: FMDV 2A StopGo reporter, luciferase signal; human cells with a luciferase reporter of 2A StopGo recoding; control for the full effect not named in the record; Potency, µM (titrated, usually from 57.9 µM), inactives show at the highest dose signal change, negative = less light; 410,000 tested, 1.2% active; active = well fitted falling curve with a large enough effect; inconclusive = small, poorly fitted or top-dose-only effect; inactive = no such curve, though single readings can be large or run the other way; tested in HEK293T cells; also: % is scaled to controls: 0 for no effect and ±100 for the full control effect; nearly all actives have a fitted effect of over 45% in size; luciferase light after 4 h
# * = called active by the depositor; ? = inconclusive; & = joins results of further samples; [ ] = dose if it differs, or a comment. Potency is read from the fitted curve at half-maximal effect.
# Start of the listing, in advance (6 entries):
SMILES,RE007 growth inh,SARS PLP yeast,StopGo reporter
O=C(Nc1ccc(C(=O)N2CCC(N3CCCC3)CC2)cc1)c1ccc(Br)o1,-15%,0%,-23%
CC1(C)C(=O)Nc2ccccc2N1C(=O)COC(=O)CSc1ccc(F)cc1,-7%,2%,0%
CCCCC1(C)NC(=O)N(CC(=O)Nc2cc(S(=O)(=O)N3CCOCC3)ccc2Cl)C1=O (stereo not drawn),4%,-2%,-14%
COc1ccc(NC(=O)N(C)C[C@H]2Oc3c(NS(=O)(=O)c4cn(C)cn4)cccc3C(=O)N([C@H](C)CO)C[C@@H]2C)cc1,-9%,0%,0%
N#C/C(=C\c1ccccc1)C(=O)OCC(=O)N1CCCC1,2%,2%,-2%
Cc1ccc(C)c(N2CCN(C(=O)Nc3ccc4c(c3)N(C)C(=O)CS4)CC2)c1,-9%,-9%,16µM*

# Main list, repeating the preview:
SMILES,RE007 growth inh,SARS PLP yeast,StopGo reporter
O=C(Nc1ccc(C(=O)N2CCC(N3CCCC3)CC2)cc1)c1ccc(Br)o1,-15%,0%,-23%
CC1(C)C(=O)Nc2ccccc2N1C(=O)COC(=O)CSc1ccc(F)cc1,-7%,2%,0%
CCCCC1(C)NC(=O)N(CC(=O)Nc2cc(S(=O)(=O)N3CCOCC3)ccc2Cl)C1=O (stereo not drawn),4%,-2%,-14%
COc1ccc(NC(=O)N(C)C[C@H]2Oc3c(NS(=O)(=O)c4cn(C)cn4)cccc3C(=O)N([C@H](C)CO)C[C@@H]2C)cc1,-9%,0%,0%
N#C/C(=C\c1ccccc1)C(=O)OCC(=O)N1CCCC1,2%,2%,-2%
Cc1ccc(C)c(N2CCN(C(=O)Nc3ccc4c(c3)N(C)C(=O)CS4)CC2)c1,-9%,-9%,16µM*
O=C(CN1CCN(S(=O)(=O)c2ccc(Cl)cc2)CC1)NCC1(N2CCOCC2)CCCCC1,1%,-3%,-27%
O=C(Nc1nc(-c2ccc(F)c(F)c2)cs1)C1=COCCO1,?,-1%,6%
O=C(O)c1cccc(OS(=O)(=O)c2cc(Br)ccc2Br)c1,-6%,13%,30%
O=C(CCl)Nc1cccc(S(=O)(=O)NC2=NCCCCC2)c1,17%,12%,?
FC(F)Oc1ccc(NC(=S)Nn2cnnc2)cc1,-1%,4%,-18%
CCOc1ccccc1C(=O)N[C@H](C(=O)NNC(=O)c1cccs1)C(C)C,11%,-2%,-15%
COc1ccc(-c2noc(CCC(=O)N3CCN(c4ccc(C(F)(F)F)cc4)CC3)n2)cc1,6%,6%,-9%
CCCNC(=O)c1ccc(N2CCC3(CC2)CC(c2cccc(Br)c2)=NO3)c(N)c1,1%,-24%,?
COc1ccccc1-c1sc2ccccc2c1-c1ccc2c(c1)OCCO2,-1%,-10%,19%
O=C(NCCc1ccc(C(F)(F)F)cc1)C1CC(=O)N(Cc2ccccc2)C1 (stereo not drawn),-6%,0%,-20%
Clc1ccc2nc(-c3cccc(SC4CCCCC4)c3)c(NCc3ccccc3)n2c1,-18%,2%,-31%
CC(Sc1ccccn1)C(=O)Nc1ccc2c(c1)OCO2 (stereo not drawn),-10%,-6%,12%
Cc1c(C(=O)N2CCN(Cc3cccs3)CC2)oc2ccccc12,-19%,5%,-8%
COc1ccccc1N(CC(=O)Nc1ccccc1C(F)(F)F)S(=O)(=O)c1cccs1,1%,0%,4%

# Quoted from the listing:
# Value for `CCOc1ccccc1C(=O)N[C@H](C(=O)NNC(=O)c1cccs1)C(C)C` in SARS PLP yeast: -2%
# Value for `CC(Sc1ccccn1)C(=O)Nc1ccc2c(c1)OCO2` (stereo not drawn) in StopGo reporter: 12%

# Further structures:
SMILES,RE007 growth inh,SARS PLP yeast,StopGo reporter
CCN(Cc1ccccc1)C(=O)Cn1c(C(C)O)nc2ccccc21 (stereo not drawn),11%,0%,-4%
CC(C)NC(=O)N(C)C[C@H]1Oc2c(NS(=O)(=O)c3ccc(F)cc3)cccc2C(=O)N([C@H](C)CO)C[C@@H]1C,-5%,0%,26%
CN(C)CCCN(C(=O)COc1ccc(Cl)cc1)c1nc2c(F)cccc2s1,-5%,1%,-9%
COCCN(C(=O)c1ccc(NC2CC2)c([N+](=O)[O-])c1)c1c(N)n(CC(C)C)c(=O)[nH]c1=O,-12%,3%,10%
Cc1cccc(NS(=O)(=O)c2ccc3[nH]c(=O)cc(C(=O)OC(C)C(=O)Nc4ccc([N+](=O)[O-])cc4)c3c2)c1 (stereo not drawn),0%,0%,-12%
O=C(OCCCc1cc2ccccc2c(=O)o1)N1CCOCC1,3%,6%,-10%
Cc1ccc(Cl)cc1NC(=O)CN1C(=O)NC(C)(C2CC2)C1=O (stereo not drawn),0%,3%,-8%
COc1ccc(S(=O)(=O)N(C)C[C@H]2Oc3ccc(NS(=O)(=O)c4ccc(F)cc4)cc3C(=O)N([C@H](C)CO)C[C@@H]2C)cc1,6%,0%,1%
Cc1ccccc1OCCC(=O)OCC(=O)NNC(=O)c1cccs1,15%,-1%,-19%
C=CCNC(=S)Nc1ccc(Cl)cc1F,-17%,24%,17%
O=C(CSc1nc(-c2ccc(F)cc2)nc2c1Cc1ccccc1O2)Nc1ccc(C(=O)O)cc1,-19%,1%,-8%
C[C@H](CO)N1C[C@H](C)[C@H](CN(C)Cc2ccc(Oc3ccccc3)cc2)Oc2ccc(NC(=O)Nc3cccc4ccccc34)cc2CC1=O,-6%,0%,-18%
NS(=O)(=O)c1ccc(CCNC(=O)CSCC(=O)Nc2ccc(Cl)cc2)cc1,-5%,4%,-18%
COc1ccc(N2CC(C(=O)N/N=C/c3cccs3)CC2=O)cc1 (stereo not drawn),25%,-5%,9%
CC(=O)NC12CC3CC(C1)CC(C(=O)N(C)CC(=O)Nc1cccc(F)c1)(C3)C2,-6%,-1%,-13%
CC1CCCCC1NC(=O)COc1ncnc2sccc12 (stereo not drawn),-5%,-7%,-21%
COC(=O)[C@]1(Cc2ccccc2)N[C@H](CN(C)C(=O)c2ccc(F)cc2)[C@@H]2C(=O)N(Cc3ccccc3)C(=O)[C@@H]21,-1%,0%,?
COc1ccc(-c2oc(=O)c3cc(OC)c(OC)cc3c2C#CC2(O)CCCCC2)cc1,-1%,-12%,-7%
COc1cccc(C(=O)CC(=O)C(=O)Nc2cc(Cl)c(OC)cc2OC)c1,12%,-4%,-23%
COc1ccc(CCNC(=O)c2ccc(Cl)c(S(=O)(=O)N3CCCCCC3)c2)cc1,-12%,-2%,14µM*
COc1cc(/C=C/C(O)=C/C(=O)/C=C/c2ccc(O)cc2)ccc1O,?,1%,-23%
CCOC(=O)N1CCN(C(=O)c2cccn3c(=O)c4c5c(sc4nc23)CCCC5)CC1,-4%,-1%,5%
O=C(CN1C(=O)C(=O)N(C2CCCC2)C1=O)Nc1ccccc1OC(F)F,-2%,-1%,-10%
O=C(COC(=O)Cc1ccsc1)Nc1ccc(F)cc1Cl,-17%,4%,-2%
CCOC(=O)C1CCN(CC(=O)N(CC(C)C)c2c(N)n(CC(C)C)c(=O)[nH]c2=O)CC1,-10%,-2%,6%
COc1ccc(C(C(=O)NC(C)(C)C)N(C[C@H]2CC[C@@H]([C@@H]3CC[C@H](CO)O3)O2)C(=O)c2ccccc2)cc1 (stereo partly drawn),-5%,-19%,-8%
COc1cc(OC)cc(-c2c(-c3cccs3)c3cc(-c4ccc5cc[nH]c5c4)ccc3n2C)c1,6%,-1%,5%
C[C@H](CO)N1C[C@H](C)[C@@H](CN(C)S(=O)(=O)c2cccs2)Oc2ccc(NC(=O)Nc3ccccc3)cc2C1=O,-1%,-1%,-20%
CCN(CC)C(=O)[C@H]1CC(CC(=O)NC(C)(C)C)C(=O)N2CCc3c([nH]c4ccccc34)[C@]12C (stereo partly drawn),-5%,-1%,-14%
O=C(O)c1cccc(NS(=O)(=O)c2ccc(-c3ccc(S(=O)(=O)Nc4cccc(C(=O)O)c4)cc3)cc2)c1,7%,0%,-17%
CC1(C)CC(NC(=O)c2cccc(S(=O)(=O)Nc3cccc(Cl)c3)c2)CC(C)(C)N1,6%,-6%,9%
CCCCN1C(Nc2ccccc2)=NC[C@@H]1C,-12%,0%,-21%
Cc1ccc(-n2c(CNC(=O)c3cccs3)nnc2SCC(=O)NO)cc1,0%,-7%,2%
CCc1nnc(NC(=O)COc2ccc(N(C)S(=O)(=O)c3ccc(C)cc3)cc2)s1,11%,5%,-13%
COc1ccc(CCC(=O)Nc2ccc(S(=O)(=O)N3CCCC3)cc2)cc1OC,-8%,6%,-21%
O=C(NCc1ccc(OC(F)(F)F)cc1)c1cccc2c1C(=O)c1ccc(N3CCCC3)cc1S2(=O)=O,14%,-7%,-1%
Fc1cccc(CCN2CCNC[C@@H]2CC2CCCCC2)c1,-19%,-12%,-1%
CN(CC(=O)Nc1ccccc1Br)C(=O)c1sccc1-c1ccccc1,-2%,-3%,?
Cc1ccccc1CN1CCSc2sccc2C1=O,1%,-1%,10%
O=C(Nc1nnc(-c2ccco2)o1)c1ccc(S(=O)(=O)N2CCCC2)cc1,16%,4%,-5%

# Exported with bars between the fields: entries from further up
smiles | RE007 growth inh | SARS PLP yeast | StopGo reporter
COc1ccc(CCC(=O)Nc2ccc(S(=O)(=O)N3CCCC3)cc2)cc1OC | -8% | 6% | -21%
O=C(COC(=O)Cc1ccsc1)Nc1ccc(F)cc1Cl | -17% | 4% | -2%

# (list continues)
SMILES,RE007 growth inh,SARS PLP yeast,StopGo reporter
CC(C(=O)NCC1CCCO1)n1cc([N+](=O)[O-])cn1 (stereo not drawn),-1%,0%,-5%
CCN(CC(=O)Nc1ccccc1C(F)(F)F)C(=O)C1CCN(C(=O)Nc2ccccc2)CC1,-6%,2%,-5%
COc1cccc(NC(=O)CN(C)C(=O)c2cccc(S(=O)(=O)N3CC4(C)CC3CC(C)(C)C4)c2)c1 (stereo not drawn),2%,0%,-8%
CCN1C(=O)[C@H]2[C@@H](c3ccc(-c4ccc(F)cc4)cc3)N[C@@](Cc3ccccc3)(C(=O)OC)[C@H]2C1=O,4%,3%,?
Cc1ccc(S(=O)(=O)N2CCCCC2)cc1NC(=O)c1c(-c2ccccc2)noc1C,-9%,-2%,-16%
CC(C)C[C@H](NC(=O)c1nc[nH]c1C(=O)N[C@@H](CCCCN)C(=O)OC(C)(C)C)C(=O)OC(C)(C)C,4%,1%,-5%
CCC(C)Sc1cc(-c2nc3ccc(Cl)cn3c2NC2CCCCC2)ccc1OC (stereo not drawn),-1%&3%,10%,2%&6%
Cc1ccc(C(=O)NCCCN2CCOCC2)cc1S(=O)(=O)N1CCOCC1,-3%,-10%,-13%
N#Cc1ccccc1NC(=O)COC(=O)C1CCN(C(=O)c2ccc(Cl)cc2)CC1,-7%,5%,-6%
Cc1c[n+](C)ccc1CC1C([N+](=O)[O-])=C[N-]c2ncnn21 (stereo not drawn),1%,2%,1%
COC(=O)c1ccc(C)c(NC(=O)CSc2nnc3ccccn23)c1,9%,-5%,-17%
COc1cccc(NC(=S)N(CCCN2CCOCC2)C(C)c2cc3cccc(OC)c3o2)c1 (stereo not drawn),1%,-5%,6%
CCCCCCSc1ccc(-c2nc3cnccn3c2NCCCC)cc1,-2%,2%,?
CC1CCN(C(=O)c2[nH]cnc2C(=O)NCc2ccccc2)CC1,0%,-2%,0%
COc1ccc(Nc2cccc3ccccc23)cc1,-25%,-4%,36%[activator]
COc1ccc(NC(=O)Nc2cccc3c2O[C@H](CN(C)C(=O)Nc2ccccc2)[C@@H](C)CN([C@H](C)CO)C3=O)cc1,2%,0%,83%[activator]
COc1ccc(-c2ccc3c(c2)S(=O)(=O)c2cccc(C(=O)NCc4cc(C)oc4C(F)(F)F)c2C3=O)cc1OC,14%,-9%,-7%
COc1ccc(C2(c3ccc(OC)cc3)NC(=O)N(CC(=O)N3CCOCC3)C2=O)cc1,5%,2%,-2%
COc1ccc(C2CC(c3ccccc3Br)=NN2c2ccc(S(N)(=O)=O)cc2)cc1 (stereo not drawn),4%,4%,0%
Cc1ccc(NS(=O)(=O)c2cccc(C(=O)NCC(c3ccco3)N3CCCC3)c2)cc1 (stereo not drawn),3%,2%,-5%
Cn1c(-c2ccsc2)c(-c2cccs2)c2cc(-c3cccc4[nH]ccc34)ccc21,-4%,-1%,-6%
N#Cc1cccc(S(=O)(=O)NCC(=O)NCc2ccc3c(c2)OCO3)c1,-6%,1%,9%
Cc1cc(C(=O)NNC(=O)CCN2CCN(c3ccccc3)CC2)c2ccccc2n1,2%,2%,-24%

# Only part of the results is shown; rates above refer to the full screens.
